Assay outcomes: PubChem BioAssay, National Center for Advancing Translational Sciences (NCATS)
AmpC inh no det – inhibitors of E. coli AmpC beta-lactamase without detergent. 71,000 compounds, 1.8% hits. Potency, µM (titrated, usually from 28.7 µM), without a hit: at the top dose activity change, negative = inhibition. P00811. AmpC nitrocefin hydrolysis, absorbance 480 nm, no detergent; potencies from a single point are estimates; active = falling curve, for most hits resting on a single point; inconclusive = weak or doubtful change; inactive = flat or rising curve; note: % of control where 0% means no effect; about half of the hits show no inhibition at the top dose; a quarter of the inactives give rising signals
Target sequence (P00811 whole entry, looked up): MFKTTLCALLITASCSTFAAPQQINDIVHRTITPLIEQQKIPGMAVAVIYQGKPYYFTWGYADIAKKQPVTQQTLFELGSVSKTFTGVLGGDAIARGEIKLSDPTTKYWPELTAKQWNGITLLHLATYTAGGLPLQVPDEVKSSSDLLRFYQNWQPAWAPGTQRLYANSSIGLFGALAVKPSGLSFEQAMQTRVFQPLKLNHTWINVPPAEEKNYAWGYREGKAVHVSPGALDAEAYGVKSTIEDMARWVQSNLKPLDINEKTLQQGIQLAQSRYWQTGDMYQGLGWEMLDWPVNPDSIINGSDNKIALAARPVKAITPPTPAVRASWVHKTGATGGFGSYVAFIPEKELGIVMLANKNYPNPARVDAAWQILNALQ
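AmpC, 20 mM phosphate pH 7.0; 15 min cpd preinc, RT; start with nitrocefin (800 uM stock); A480 kinetic read, 20 s intervals, 4 min. No-enzyme wells = negative control.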
Starred values were filed as active, the others as inactive; & = joins results of further samples; [ ] = another dose, or the depositor's remark. Potency is the fitted concentration of half-maximal effect.

SMILES | AmpC inh no det
O=c1c[n+](CCCC[n+]2cc(=O)o[nH]2)[nH]o1 | 1.9%[5.75 µM]
Cc1cccc(OC(=O)N2CCOCC2)c1 | -19.2%
O=C1CCCc2nc(N3CCc4ccccc43)ncc21 | 80.9%
CCOC(=O)c1nc(-c2ccc3c(c2)OCO3)[nH]c1C | -0.7%
O=C(COc1ccccc1)N(Cc1cc2ccccc2[nH]c1=O)CC1CCCO1 (centres undefined) | 28.3%
CC1(C)OC(=O)N(Cc2ccco2)C1(C)O (centres undefined) | 1.9%
CCN1CCCC1CNc1ncnc2c1[nH]c1ccc(Cl)cc12 (centres undefined) | 13.2%
O=C(CCNC(=O)Cn1cnc2ccccc2c1=O)NCCC1=CCCCC1 | 52.6%
O=C(O)c1ccc(COCC(F)(F)F)cc1 | 12.5%
Cc1ccc(Cl)cc1N1CCN(C(=O)C2CCCN(S(=O)(=O)c3cnc[nH]3)C2)CC1 (centres undefined) | 118.8%
COC(=O)c1c(C(=O)OC)c2n(c1C)CCC2 | 7.9%
COc1cc(C2CC(=O)C=C(O)C2)cc(OC)c1OC (centres undefined) | 78.8%
COCCn1nnnc1CN1CCN2CCCC2C1 (centres undefined) | 4.6%
COc1cccc(-c2cncnc2NCc2ccccc2)c1 | 12.6µM*
COc1ccc(C2=NOC(C(=O)NC(C)C)C2)cc1 (centres undefined) | 11.0%
CCOC(=O)CN1CC23C=CC(O2)C(C(=O)NC2CCCC2)C3C1=O (centres undefined) | -10.3%
CCOc1cc(-c2noc(N)c2C(=O)OC)cc(OCC)c1OCC | 31.8%
Cn1c(/N=C/c2cc(Cl)ccc2O)nc2ccccc21 | 3.5%
CC(=O)Oc1ccc(C)cc1N1C(=O)c2ccc(C(=O)O)cc2C1=O | -3.9%
O=C(CCNS(=O)(=O)c1cccc2nsnc12)NCc1cccs1 | -6.6%
COC(=O)c1ccc(C(NC(=O)OCc2ccccc2)/C(C)=C/[C@@H](C)C(=O)Nc2ccc(OC)cc2)cc1 (some centres undefined) | 78.3%
CCOC(=O)c1sc(NC(=O)c2noc3c2CCCC3)c(C(=O)OCC)c1C | 3.98µM*[single pt active]
OCc1cnc[nH]1 | -1.7%
COc1cccc(C(=O)N2CCN(C(=O)c3cccs3)CC2)c1OC | 8.6%
COc1ccccc1CNC(=O)C1CCN(Cc2nc(-c3cccc(Cl)c3)oc2C)CC1 | 120.2%

Of the compounds above, these have an aryl methoxy group:
SMILES | AmpC inh no det
COc1cc(C2CC(=O)C=C(O)C2)cc(OC)c1OC (centres undefined) | 78.8%
COc1cccc(-c2cncnc2NCc2ccccc2)c1 | 12.6µM*
COc1ccc(C2=NOC(C(=O)NC(C)C)C2)cc1 (centres undefined) | 11.0%
COC(=O)c1ccc(C(NC(=O)OCc2ccccc2)/C(C)=C/[C@@H](C)C(=O)Nc2ccc(OC)cc2)cc1 (some centres undefined) | 78.3%
COc1cccc(C(=O)N2CCN(C(=O)c3cccs3)CC2)c1OC | 8.6%
COc1ccccc1CNC(=O)C1CCN(Cc2nc(-c3cccc(Cl)c3)oc2C)CC1 | 120.2%

Further compounds.
SMILES | AmpC inh no det
COc1cc(NC(=O)C2CCC(CNc3c(N4CCCCC4)c(=O)c3=O)CC2)cc(OC)c1 (centres undefined) | 3.98µM*[single pt active]
COc1ccc(NC(=O)/C=C\c2ccc(Cl)cc2)cc1 | -12.3%
CCOc1cc(S(=O)(=O)NCc2ccccc2)ccc1F | -13.6%
COc1ccc(CCNC(=O)COC(=O)c2cnccn2)cc1 | 5.8%
CC1(C)CC(=O)N(c2ccccc2)C1(C)O (centres undefined) | -7.2%
C=CCn1c(SCC(=O)C(C)(C)C)nnc1-c1cccs1 | 15.3%
CCCc1ccc(OCC(O)CN2CCN(c3ccccc3)CC2)cc1 (centres undefined) | 26.6%
COc1cccc(C(=O)NC2CC3CCCC(C2)N3CC(=O)Nc2ccc(N(C)C)cc2)c1 (centres undefined) | 88.2%
COc1cccc(-c2nnc(SCc3cccnc3)o2)c1 | 35.3%
CN(c1ccc(C(=O)NCc2ccco2)cc1)S(C)(=O)=O | 4.7%
CCOC(=O)Cn1c(C(C)=O)nc2ccccc21 | 7.6%
CC(C)CSC[C@@H]1O[C@H](n2cnc3c(N)nccc32)[C@H](O)[C@@H]1O | 7.4%[5.75 µM]
COc1ccc(NCc2nnc(SCC(=O)Nc3cc(C(F)(F)F)ccc3Cl)o2)cc1 | 5.3%
COc1ccc2[nH]c(=O)c(CN(CCCN(C)C)C(=O)Nc3ccccc3)cc2c1 | 23.9%
Cc1c(Cl)cccc1NC(=O)CCN1CCCCC1 | -11.0%
ClC(Cl)(Cl)c1ccccc1 | -10.1%&-1.8%
Cc1noc(C)c1CSc1nc2ccccc2n1CCc1ccccc1 | 20.6%
O=C(c1c[nH]c2ccc(S(=O)(=O)N3CCOCC3)cc2c1=O)N1CCCC1 | -7.0%
CCCN1Cc2cccc(C(=O)Nc3ccc4c(c3)OCO4)c2C1=O | 52.3%
CCOC(=O)c1cnc2c(C)c(Cl)ccc2c1N1CCOCC1 | 3.98µM*[single pt active]
COc1cccc(-n2c(SCC(=O)O)nnc2-c2cccnc2)c1 | -7.4%
Cc1cc(S(=O)(=O)NCCCN2CCOCC2)ccc1F | 0.3%
COc1ccc(C2=NOC(C(=O)NCC(C)C)C2)cc1 (centres undefined) | 16.6%
O=C(C1CCN(S(=O)(=O)c2cccnc2)CC1)N1CCN(C2CCCC2)CC1 | 15.4%
COc1cccc(-c2cc(C(=O)Nc3cccc(O)c3)no2)c1 | -22.7%
Continuation.
SMILES | AmpC inh no det
CCCCNc1nc(C)nc2c1nc(C)n2CCC | 17.5%
COC(=O)c1cn(C(=O)c2ccccc2F)nc1N | -0.9%
COC(=O)c1ccc(COc2cc(O)c3c(c2)OC(C)(C)CC3=O)cc1 | 18.8%
CCOC(=O)N1CCN(C(=O)c2ccccc2NC(=O)c2ccc(OC)cc2)CC1 | 28.2%
O=C(c1ccc(=O)oc1)N1CCCc2ccccc21 | -2.9%
CC1CCN(C(=O)COC(=O)c2cc3ccccc3cc2O)CC1 | 27.1%
CC(=O)Nc1ccc(C(=O)CSc2nnc(C)o2)cc1 | 0.8%
Cc1cc(N2CCN(C/C=C/c3ccccc3)CC2)n2ncnc2n1 | 104.5%
CCN1CCN(c2ccc(NC(=O)c3cccnc3)cc2Cl)CC1 | -3.1%
CC(=O)c1cc(-c2ccccc2)n(CC(=O)NCc2cccs2)c1C | 1.1%
COC(=O)c1cc(Cl)c(NS(=O)(=O)c2ccccc2)cc1OC | -4.9%
CCOC(=O)N1CCC(Nc2c(OCC)c(=O)c2=O)CC1 | 3.98µM*[single pt active]
COC(=O)CC1=C(C(=O)OC)C2(C(=O)Nc3c(C)cccc32)C(C#N)=C(N)O1 (centres undefined) | 9.5%
CCN(CC)CCCC(C)n1c(-c2ccccc2)nc2c(N(CCOC)CCOC)nc(C)nc21 (centres undefined) | 82.3%
Cc1ccccc1NC(=O)CSc1nnc(Cc2cccn2C)n1-c1ccc(F)cc1 | 83.2%
Fc1ccc(N2CCN(Cc3ccc4c(c3)OCO4)CC2)cc1 | 2.8%
O=c1cccc2n1CC1CC2CN(Cc2c(Cl)cccc2Cl)C1 (centres undefined) | 76.9%
CCOC(=O)CCSc1nc(C)cc(C(F)(F)F)c1C#N | 13.0%
COC1(OC)N=C(NC(=O)Nc2ccccc2)C2(C#N)C(c3ccccc3)C12C#N (centres undefined) | -9.1%
COC(=O)CNC(=O)COC(=O)c1cc(Cl)cc(Cl)c1N | -9.4%
C[C@@]12CCC(=O)C=C1CC[C@H]1[C@@H]2[C@@H](O)C[C@]2(C)[C@@H]1CC[C@@]2(O)C(=O)COC(=O)C1CCCC1 | 25.6%[5.75 µM]
O=C(NCCN1CCN(c2ccccc2F)CC1)C1c2ccccc2C(=O)N2CCc3ccccc3C12 (centres undefined) | 105.5%
CC1CCN(C(=O)CNC(=O)Cn2ccc3ccccc3c2=O)CC1 | 0.6%
CCN(CC)S(=O)(=O)c1cc(C(=O)Nc2ccccc2C(=O)O)ccc1OC | -13.7%
Cc1ccccc1-c1cc(Nc2ccc(F)cc2)ncn1 | 0.5%
More compounds:
SMILES | AmpC inh no det
CCOc1ccc(C)cc1S(=O)(=O)Nc1cccnc1 | -13.1%
CC1=CC(=C(C#N)c2nc3ccccc3s2)C=C(C)N1Cc1ccco1 | 1.6%
c1ccc(CN(Cc2ccco2)C(c2ccncc2)c2nnnn2C2CCCC2)cc1 (centres undefined) | 110.3%
CS(=O)(=O)NCCSCc1ccc(Cl)cc1 | -0.5%
CN1CC(=O)N/C1=N\C(=O)Nc1ccc2c(c1)N(C)C(=O)CS2 | -14.9%
COC(=O)c1cc(NC2c3ccccc3C(=O)N2c2ccc(Cl)cn2)cc(C(=O)OC)c1 (centres undefined) | 4.8%
C=CCn1c(C)c(C(C)=O)c(N2CCCC2)nc1=S | -8.4%
Cc1ccc(C(=O)NCCN(C)C)c(C)c1 | 2.5%
COC(=O)c1[nH]c(C)c(/C(O)=C2\C(=O)C(=O)N(CCN(C)C)C2c2ccc(C)o2)c1C (centres undefined) | 4.3%
Cc1ccc(C(=O)N(Cc2nc(-c3ccc(C)cc3)no2)C(C)C)cc1 | 43.4%
Cc1ccc(-c2nnc3sc(CCc4ccccc4)nn23)cc1 | 50.7%
CCOCCCNC(=O)C1CCC(CNS(=O)(=O)c2ccc(F)cc2)CC1 (centres undefined) | 31.1%
O=C(CNC(=O)c1ccco1)OCc1ccc(C(=O)Oc2ccccc2)cc1 | 8.0%
COCCn1cc(C(=O)N2CCC(C)CC2)c2c3ccccc3n(C)c2c1=O | 102.3%
CCOC(=O)c1c(C)[nH]c(C)c1C(=O)COC(=O)c1cccc(S(=O)(=O)NC)c1 | 13.1%
CC(=O)OC1CC(C)(C)N(OC(=O)c2ccccc2)C(C)(C)C1 | 78.0%
Cc1nc(SCN2C(=O)c3ccccc3C2=O)n[nH]1 | -0.4%
CNc1cc(-n2nc(C)cc2-c2ccccc2)ncn1 | 7.6%
CCOc1ccccc1CN(Cc1ccco1)S(=O)(=O)c1ccc(-n2cnnn2)c(OC)c1 | 41.5%
COc1ccccc1Cn1c(CCCO)nc2ccccc21 | 84.7%
C=C(c1ccc(O)cc1)c1ccc(O)cc1 | -14.4%
Cc1ccccc1NC(=O)CSC(N)=O | -2.6%
Brc1ccc(-c2cn3cccnc3n2)cc1 | -2.8%
CN1C(=O)c2ccccc2C(C(=O)NCCCN2CCCC2=O)C1c1c[nH]c2ccccc12 (centres undefined) | 26.5%
O=C1CC(N2CCN(c3ccc(S(=O)(=O)N4CCOCC4)cc3)CC2)C(=O)N1Cc1ccccc1 (centres undefined) | 117.9%

Reformatted with tabs: entries from further up
SMILES	AmpC inh no det
CC1=CC(=C(C#N)c2nc3ccccc3s2)C=C(C)N1Cc1ccco1	1.6%
COCCn1cc(C(=O)N2CCC(C)CC2)c2c3ccccc3n(C)c2c1=O	102.3%
Cc1ccccc1NC(=O)CSC(N)=O	-2.6%
Cc1ccc(C(=O)NCCN(C)C)c(C)c1	2.5%

Further results follow:
SMILES | AmpC inh no det
O=c1cc(N2CCc3ccccc3C2)[nH]c(=O)n1-c1ccc(Cl)cc1 | 15.8µM*[single pt active]
CN(C)CCCOc1nn(Cc2ccccc2)c2ccccc12 | 34.1%[12.8 µM]
CCNc1ncc2ncc(=O)n(Cc3cccs3)c2n1 | 19.3%
O=C(O)[C@@H](c1ccccc1)[C@@H](C(=O)O)c1ccccc1 | -2.1%[5.75 µM]
CCc1ccccc1N1CSC2=C(C#N)C(c3cc(OC)c(OC)cc3OC)CC(=O)N2C1 (centres undefined) | 28.4%
CC(C)Cn1c(N)c(C(=O)CSc2nnnn2-c2ccc(Cl)cc2)c(=O)n(C)c1=O | -20.7%
COc1ccccc1NC(=O)c1cccc(NC(=O)c2ccco2)c1 | -2.5%
COc1cc(CC(=O)OC2CCOC2=O)cc(OC)c1OC (centres undefined) | 4.6%
Cc1cc(C)cc(-n2ccnc2SCC(=O)Nc2nccs2)c1 | -6.2%
CC1CCc2nc(NC(=O)c3ccco3)sc2C1 (centres undefined) | 10.2%
CCOC(=O)c1[nH]c(C)c(C(=O)Nc2ccc(C)cc2C)c1C | 29.2%
CCOc1ccc(C(=O)N2CCCC2)cc1OC | 7.2%
COc1ccc(CNC(=O)CCCNS(=O)(=O)c2cccc3nonc23)cc1 | 0.9%
CCOc1cc(C2CC(=O)N3CN(C4CCCCC4)CSC3=C2C#N)ccc1O (centres undefined) | 2.51µM*
Nc1nnnn1/N=C/C(Br)=C/c1ccccc1 | -7.9%
CCOC(=O)Cc1csc(NS(=O)(=O)c2ccc3c4c(cccc24)C(=O)N3CC)n1 | -14.7%
CCS(=O)(=O)N1CCC(c2nc(-c3ccc(C)cc3)no2)CC1 | 53.6%
Cc1ccc(-c2cc(C(=O)NCCN3CCOCC3)no2)cc1 | 27.4%
C=CCn1c(SCC(=O)Nc2c(C)nn(Cc3ccccc3)c2C)nnc1C(O)c1ccccc1 (centres undefined) | 69.5%
O=C(Nc1ccccc1-c1nc2ccccc2s1)c1ccco1 | -21.5%
COC(=O)c1nnn(-c2nc(N3CCCCC3)nc(N3CCCCC3)n2)c1C | 8.2%
O=C(Oc1ccc(/C=N/O)cc1)c1ccccc1 | -5.6%
COc1ccc(OC)c(NC(=O)C2C3CCC(O3)C2C(=O)O)c1 (centres undefined) | 14.3%

Retrieved by compound from the entries so far (4):
SMILES | AmpC inh no det
CCS(=O)(=O)N1CCC(c2nc(-c3ccc(C)cc3)no2)CC1 | 53.6%
COc1cc(CC(=O)OC2CCOC2=O)cc(OC)c1OC (centres undefined) | 4.6%
O=C(Nc1ccccc1-c1nc2ccccc2s1)c1ccco1 | -21.5%
CC1CCc2nc(NC(=O)c3ccco3)sc2C1 (centres undefined) | 10.2%

These rows are one share of the data; the hit share may differ from the screen's.
